Source: PubChem
TRPML1 ag: agonists of human TRPML1 channel; 410,000 compounds, 0.12% hits; TRPML1-expressing cells, Ca2+ dye fluorescence, FDSS; host cell line not named in the record; reference of the full effect not given here; AID 624414; activation, % (no concentration beside the values); in the data active = activation above about 50%; inconclusive = about 30% to 50%; inactive = below about 30%; also: 0% is about no effect; the text of the record puts the active cut at 80%
Target sequence (Q9GZU1 whole entry, looked up): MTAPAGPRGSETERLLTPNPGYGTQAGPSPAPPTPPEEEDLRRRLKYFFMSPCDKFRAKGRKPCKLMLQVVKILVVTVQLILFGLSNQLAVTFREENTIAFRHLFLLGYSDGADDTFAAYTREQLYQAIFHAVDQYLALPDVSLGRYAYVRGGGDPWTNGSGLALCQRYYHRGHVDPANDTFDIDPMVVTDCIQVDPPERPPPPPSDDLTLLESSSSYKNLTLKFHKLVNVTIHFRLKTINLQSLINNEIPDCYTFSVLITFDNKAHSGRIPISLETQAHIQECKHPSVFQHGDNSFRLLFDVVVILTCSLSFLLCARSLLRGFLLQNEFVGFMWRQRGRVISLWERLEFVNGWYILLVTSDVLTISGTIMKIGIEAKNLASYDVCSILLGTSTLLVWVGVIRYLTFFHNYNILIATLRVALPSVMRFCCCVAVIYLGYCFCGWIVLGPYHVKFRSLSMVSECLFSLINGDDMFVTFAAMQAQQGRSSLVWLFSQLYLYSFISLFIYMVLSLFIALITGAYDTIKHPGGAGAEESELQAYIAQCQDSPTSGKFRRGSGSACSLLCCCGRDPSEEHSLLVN
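Kinetic FDSS Ca2+ read in Tet-induced TRPML1-DL cells (ABD Ca8 dye plus quencher, 45-90 min RT loading): baseline, then compound, then 110 s agonist window; EC80 agonist 54-4 at 4uM final added afterwards for a 110 s antagonist window.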
TRPV1 potentiator: enhances activation of the human vanilloid receptor TRPV1. TRPV1-expressing cells, Fluo-8 calcium influx, capsaicin EC20 potentiation; host cell line not named in the record; control for the full effect not named in the record. 320,000 compounds, 0.02% hits. AID 540277. Q8NER1. potentiation, % at 8.33 µM; active means potentiation above 80%; inconclusive means 30% to 80%; inactive means below 30%; also: 0% is about no effect
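Fluo-8 calcium influx in TRPV1-expressing cells, kinetic read (ex 480/em 520 nm). Compound added and read 3 min for agonist activity, followed by capsaicin at EC20 final and 2 min further read for enhancement.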
ClpP mod: qHTS Assay for Activators of ClpP. purified B. subtilis ClpP, FRET peptide cleavage, 20 min. 340,000 compounds, 1.9% hits. Potency, µM (highest dose often 57.5 µM), without a hit: at the top dose activity change, negative = active; active = well fitted falling curve with a large enough effect; inconclusive = small, poorly fitted or top-dose-only effect; inactive = no such curve, though single readings can be large or run the other way; also: potency is read from the fitted curve at half-maximal effect; the source files actives as falling curves though it sought activators and does not explain the sign; nearly all actives have a fitted effect of over 65% in size; many hits overshoot -100%
Target sequence (P80244 whole entry, looked up): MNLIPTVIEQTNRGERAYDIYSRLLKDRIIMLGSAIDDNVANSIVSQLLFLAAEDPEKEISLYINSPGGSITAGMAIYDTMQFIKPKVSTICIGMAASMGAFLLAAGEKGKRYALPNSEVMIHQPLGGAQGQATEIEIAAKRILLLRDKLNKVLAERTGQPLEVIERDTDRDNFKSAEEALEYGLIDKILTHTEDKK
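ClpP 10 microg/mL final, pH 8 Tris/KCl buffer with BSA, glycerol, Tween-20; compound pinned in; FRET-FV substrate; RT 20 min; Ex320/Em430; ΔFRET vs ADEP 5.8 microM, DMSO, no enzyme.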
TRPML1 inh: human mucolipin-1 channel inhibition; TRPML1-inducible cells, Ca2+ dye fluorescence, FDSS; stronger effect = lower value; inhibition of EC80 agonist-evoked calcium signal; activity change, negative = inhibition, % (concentration not given with the values); 390,000 compounds, 0.02% hits; AID 624415; in the data active means activity change below about -50%; inconclusive means about -30% to -50%; inactive means above about -30%;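 also: stimulus is agonist 54-4 at its EC80 concentration; % is scaled to controls: 0 for no effect and ±100 for the full control effect; the text of the record puts the active cut at -80%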
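TRPML1-DL cells, Tet-induced overnight (~16 h, 37 °C) at 1,500 cells/well, were loaded with Ca8 no-wash dye plus quencher for 45-90 min at room temperature. Compounds were pinned during FDSS kinetic reading; agonist 54-4 at EC80 (4 uM final) then added.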
Menin-MLL FL inh: displaces fluorescein MLL peptide from human menin. Fluorescence polarization, fluorescein-MLL peptide displacement from menin. FP activity change, % at 61.4 µM. 290,000 tested, under 10 active. AID 1766; inconclusive = falling polarisation curve, or a change in total fluorescence; inactive = total fluorescence flat and polarisation flat or rising; no compound was filed as active; the % refers to the polarisation; negative = inhibition;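 also: % of control where 0% means no effect; inhibitors lower the polarisation; unlabelled MLL peptide was the positive control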
PINK1 modulator: PINK1 expression modulation | 410,000 compounds, 0.2% hits | PINK1 immunofluorescence, high-content cytometry, 24 h | Potency, µM (titrated, usually from 76.6 µM), without a hit: top-dose activation (PINK1 increase), usual class: activators | AID 624263; active = well fitted activation curve with a large enough effect; inconclusive = small, poorly fitted or top-dose-only effect; inactive = flat fitted curve, though single readings scatter; cell line not stated here;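 also: potency is read from the fitted curve at half-maximal effect; % of control where 0% means no effect; nearly all actives have a fitted effect of over 65% in size; a mitochondrial uncoupler was the plate control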
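PINK1 protein level read as immunofluorescence by microplate cytometer in a fixed, stained stable cell line after 24 h exposure to five compound concentrations, with CCCP as control.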
Sfp PPTase inh: Sfp phosphopantetheinyl transferase inhibition; Q9F4F7; Biochemical Sfp PPTase activity, qHTS; Potency, µM, without a hit: max response, negative = inhibition, most hits filed as inhibitors; 310,000 compounds, 3.5% hits; AID 1490; active = well fitted inhibition curve with a large enough effect; inconclusive = small, poorly fitted or top-dose-only effect, or another doubt; inactive = no such curve, though single readings can be large or run the other way;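 also: the enzyme is Sfp with the accession as filed and its product quenches rhodamine fluorescence; potency is read from the fitted curve at half-maximal effect; 0% = enzyme reaction without inhibitor and -100% = no enzyme wells; top concentration of the series not given in the record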
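Compounds were incubated with enzyme (final 15 nM) for 15 min at room temperature before substrate addition started the reaction. Fluorescence at 525 nm excitation, 598 nm emission was recorded immediately and after 30 minutes.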
* marks the source's active call; other numbers are inactive results; ? = inconclusive; . = not tested or not shown; & = joins results of further samples; [ ] = dose if it differs, or a comment.

SMILES	TRPML1 ag	TRPV1 potentiator	ClpP mod	TRPML1 inh	Menin-MLL FL inh	PINK1 modulator	Sfp PPTase inh
Cn1nc(C(=O)NC2CCCCCC2)ccc1=O	-0.6	0	-15%	-7	2.8	-0.8%	16%
O=C(CCCn1nnnc1CN1CCOCC1)N1CCN(c2ccccc2F)CC1	0.0	-5	0.8%	4	.	0.4%	6%
CCn1ncc(Cl)c1C(=O)NC(=S)Nc1ccccc1Br	2.9	-8	-0.8%	-19	.	-0.9%	-19%
CCOc1ccc(N(C(C)C(=O)NC(C)CC)S(C)(=O)=O)cc1 (centres undefined)	-0.1	-2	3.3%	-9	-1.2	-1.5%	6%
O=C(O)c1ccc(NCc2cccc(Br)c2)cc1	0.2	6	-3.0%	14	6.7	0.1%	11%
Cc1ccc(NC(=O)CC2S/C(=N/N=C/c3ccco3)NC2=O)cc1Cl (centres undefined)	1.0	21	.	-13	7.1	2.6%	-12%
CC[C@]12c3[nH]c4ccc(Cl)cc4c3CCN1C(=O)[C@@H](CC(=O)NCc1ccco1)C[C@@H]2C(=O)N1CCN(C(=O)c2ccco2)CC1	0.0	.	1.6%	-7	.	2.0%	.
Cc1cc(Br)c(NC(=O)COn2nnc3ccc(S(C)(=O)=O)cc32)c(Br)c1	1.5	-2	.	5	0.8	1.6%	21%
Cc1cc(Br)c(NC(=O)CCl)c(Br)c1	0.0	5	-0.3%	13	-2.9	0.7%	8%
O=C(OCC(=O)N1CCc2ccccc21)[C@@H]1CCCN1S(=O)(=O)c1ccccc1F	-0.2	-1	-5.0%	-2	.	-1.1%	.
COc1cc(/C=N/n2cnnc2)ccc1OCCOc1ccccc1	-0.6	3	-19%	-15	2.6	0.8%	26%
CCCCNC(=O)C[C@@H]1C[C@@]2(C(=O)OC)CCCCC=C2N(Cc2ccc(Cl)cc2Cl)C1=O	-0.7	.	-4.6%	.	.	1.4%	.
COc1cccc(CNC(=O)CSc2n[nH]c(-c3ccccc3Cl)n2)c1OC	0.8	.	-1.2%	-10	.	0.0%	.
OCCCCCN=c1cc(-c2ccccc2)oc2ccc(Cl)cc12	-0.9	-19	-1.7%	27	0.2	0.2%	9%
COc1cc(/C=N/NC(N)=O)ccc1OC(=O)c1ccco1	0.3	-8	.	24	-2.0	0.0%	10%
COc1ccc(C(=O)Nc2nc(N3C(=O)c4ccccc4C3=O)n(-c3ccccc3)n2)cc1	-0.2	2	0.4%	-5	1.3	-0.1%	?
O=C(NCc1ccc(F)cc1)c1cc2cccc3c2n1CCS3	0.4	.	4.0%	-10	.	1.3%	.
Cc1noc(C)c1S(=O)(=O)Nc1ccc2c(c1)C(=O)N([C@H](C)CO)C[C@H](C)[C@@H](CN(C)C(=O)Nc1ccc(C(F)(F)F)cc1)O2	-0.4	.	-7.5%	20	.	0.3%	.
COc1ccc(OCC(=O)N2CCc3ccccc32)c([N+](=O)[O-])c1	-1.2	.	-0.8%	4	.	0.5%	.
CCSc1ncc(Cl)c(C(=O)N(Cc2ccccc2Cl)C2CCS(=O)(=O)C2)n1 (centres undefined)	0.8	.	0.2%	-9	.	2.7%	.

Reprinted from the part before: five compounds, then new ones.
SMILES	TRPML1 ag	TRPV1 potentiator	ClpP mod	TRPML1 inh	Menin-MLL FL inh	PINK1 modulator	Sfp PPTase inh
COc1ccc(C(=O)Nc2nc(N3C(=O)c4ccccc4C3=O)n(-c3ccccc3)n2)cc1	-0.2	2	0.4%	-5	1.3	-0.1%	?
O=C(NCc1ccc(F)cc1)c1cc2cccc3c2n1CCS3	0.4	.	4.0%	-10	.	1.3%	.
Cc1noc(C)c1S(=O)(=O)Nc1ccc2c(c1)C(=O)N([C@H](C)CO)C[C@H](C)[C@@H](CN(C)C(=O)Nc1ccc(C(F)(F)F)cc1)O2	-0.4	.	-7.5%	20	.	0.3%	.
COc1ccc(OCC(=O)N2CCc3ccccc32)c([N+](=O)[O-])c1	-1.2	.	-0.8%	4	.	0.5%	.
CCSc1ncc(Cl)c(C(=O)N(Cc2ccccc2Cl)C2CCS(=O)(=O)C2)n1 (centres undefined)	0.8	.	0.2%	-9	.	2.7%	.
Cn1c(=NC(=O)CSCC(=O)N2CCCCC2)sc2ccccc21	0.3	10	35µM*	-6	3.3	0.1%	-6%
CCOc1ccc(NC(=O)CSC2=Nc3ccccc3C3=NC(CC(=O)NCc4ccccc4OC)C(=O)N23)cc1 (centres undefined)	0.5	.	0.9%	-2	.	3.2%	.
Cc1ccc(Cl)cc1NC(=O)Cn1c(=O)c2ccccc2n2nncc12	-0.7	.	-8.9%	1	.	0.4%	.
CCOC(=O)N1CCc2c(sc(NC(=O)CN(CC)CC)c2C#N)C1	-0.2	-25	.	0	2.0	-1.2%	9%
COc1ccc(C(=O)N2CCN(C3CCCCC3)CC2)c(OC)c1	-0.2	4	-0.6%	12	-0.2	10%[38.3 µM]	9%
Cc1nc2c(sc3nc4c(cc32)COC(C)(C)C4)c(=O)n1CC(=O)NCc1ccco1	-0.4	-10	-25%	21	3.7	19%[38.3 µM]	-17%
COc1ccccc1C(=O)Nc1c(-c2ccccc2)nc2ccccn12	1.4	-3	.	14	-2.7	2.8%	10%
CCOc1ccc(C2C(C(=O)Nc3ccccc3)=C(C)Nc3nc(SCc4cc(C)ccc4C)nn32)cc1 (centres undefined)	-0.4	.	-20%	-20	.	2.1%	.
CCCC(CCC)c1nc2ccncc2[nH]1	-1.1	?	.	6	-7.6	2.4%	-12%
CCC(C)[C@H](NC(=O)NC(C)C)C(=O)O (some centres undefined)	0.0	2	-7.2%	8	1.7	-1.2%	9%
COc1ccc(/C=C/C(=O)OCC(=O)NCCNC(=O)COC(=O)/C=C/c2ccc(OC)cc2)cc1	0.8	9	-20%	-3	.	3.2%	1%
Cc1ccc(S(=O)(=O)N2CCCOC2CNC(=O)C(=O)NC2CCCCC2)cc1 (centres undefined)	-0.5	6	.	5	-1.8	0.5%	8%
COc1cc(N)c(Cl)cc1C(=O)OCC(=O)Nc1ccc(N2CCOCC2)cc1	-0.3	.	-14%	-8	.	8.1%	.
COc1cc(O)c(C(CCN2CCOCC2)c2ccc(N(C)C)cc2)c(OC)c1 (centres undefined)	0.6&0.8	-5	-0.1%	2&0	0.8&7.4	-1.0%	15%&7%
O=C(CSc1nc(C(F)(F)F)cc(=O)[nH]1)Nc1cccc2ccccc12	-0.2	-3	-4.7%	1	.	-1.6%	.
CN(c1ccccc1)S(=O)(=O)c1cc(C(=O)NCc2ccco2)ccc1Cl	1.1	.	0.3%	24	.	-0.9%	.
CCCCn1nc(NC(=O)CC)c2cc3cc(OC)ccc3nc21	1.9	-18	-1.9%	8	-4.8	1.5%	3%
Cc1c(C(=O)NNS(=O)(=O)c2ccccc2)sc(=S)n1C	0.7	21	-5.3%	10	2.8	-0.4%	-26%
COc1ccc(C(=O)O)cc1S(=O)(=O)Nc1ccc(C)cc1	0.1	5	2.2%	-4	-3.1	1.2%	4%
COc1ccccc1-n1nnnc1SCC(=O)N1CCCC1=O	0.7	3	0.9%	-20	.	-1.4%	0%
O=C(O)CSc1ncnc2sc3c(c12)CCC3	-0.5	-12	-19%	12	5.7	-1.7%	14%
CCCCNCCCOc1cc(Cl)ccc1Cl	0.9	4	0.4%	-5	-1.8	0.2%	17%
O=Cc1c(-c2ccc(F)cc2)nc2ccccn12	-0.3	2	.	0	0.2	0.8%	14%
N=c1nc2n(cc1F)C1OC(CO)C(O)C1O2 (centres undefined)	0.1	.	-1.5%	7	.	-5.4%	.
O=C(Nc1ccc(C2CCCCC2)cc1)C1CCN(c2ncccn2)CC1	0.2	6	-1.0%	-13	2.4	3.0%	7%
COc1cccc(-n2c(SCC(=O)Nc3cc(C)ccc3C)nc3c(oc4ccccc43)c2=O)c1	-0.6	.	-13%	-9	.	-0.3%	.
CN(C)C(=O)Cn1cnc2c(cnn2-c2ccc(F)cc2)c1=O	0.2	-3	-18%	34	-5.8	1.3%	19%
CCN(CC)CCn1c(=N)n(CC(=O)c2ccc(Br)s2)c2ccccc21	0.4	7	.	6	4.7	-2.7%	3%
C[C@H]1CN([C@@H](C)CO)C(=O)CCCn2nncc2CO[C@@H]1CN(C)C(=O)Nc1cccc2ccccc12	0.2	.	4.0%	-6	.	1.0%	.
COc1ccc([C@@H]2[C@@H]3C(=O)N(C(C)(C)C)C(=O)[C@@H]3[C@]3(CC(C)C)C(=O)N(c4ccccc4)C(=O)N23)cc1	0.6	-5	-2.4%	24	0.4	3.0%	7%
CC1Cc2cc(/C(O)=C3/C(=O)C(=O)N(CCCn4ccnc4)C3c3ccc([N+](=O)[O-])cc3)ccc2O1 (centres undefined)	-0.7	.	-1.7%	4	.	0.0%	.
Cc1cnc(NC(=O)Cc2ccccc2Cl)s1	1.1	-1	.	-13	0.9	-2.0%	7%
O=C(COC(=O)c1ccc2c(c1)C(=O)N(Cc1ccncc1)C2=O)Nc1cccc2ccccc12	2.5	7	.	21	0.8	5.8%	-13%
CC(NC(=O)c1cccnc1)C(c1cccs1)N1CCN(c2ccccc2F)CC1 (centres undefined)	-0.1	4	.	-3	4.3	-1.1%	11%
Cc1cc(F)ccc1NC(=O)c1ccc2nc(Cc3ccccc3)oc2c1	0.9	.	4.7%	17	.	2.1%	.
CC1(C)CC(=O)C(C=Nc2ccc(O)c(N=CC3=C(O)CC(C)(C)CC3=O)c2)=C(O)C1	4.7	25	-1.5%	4	?	1.6%	8%
O=C(Nc1cccc2cccnc12)c1ccccc1[N+](=O)[O-]	4.3	.	1.1%	5	.	0.4%	.
O=C(CN1C(=O)c2ccc([N+](=O)[O-])cc2C1=O)Nc1cc(S(=O)(=O)N2CCOCC2)ccc1Cl	2.6	0	1.3%	?	.	11%	.
OCCN1CCN(CC(O)COc2ccc(-c3ccccc3)cc2)CC1 (centres undefined)	1.7	9	-1.9%	-26	0.1	3.5%	10%
O=C(CN1C(=O)COc2ccc(Cl)cc21)NC1CC1	0.2	11	-1.8%	-13	.	0.1%	-1%
O=C(Nc1ccccc1Cl)c1ccccc1CC(O)(c1ccccc1)c1ccccc1	1.6	.	-12%	0	.	11%	.
COc1ccc(N2CC(C(=O)Nc3nc4ccc(S(C)(=O)=O)cc4s3)CC2=O)cc1 (centres undefined)	0.6	5	.	23	0.0	1.4%	?
CCCOc1ccc(F)cc1-c1cc(C(=O)NCCOC)[nH]n1	-1.2	.	-1.8%	.	.	1.0%	.
